2A firefly – Primary qHTS Assay for Foot and Mouth Disease Virus Antivirals against NCGC Sytravon and CBC Compound Libraries: Firefly Luciferase Signal; Potency, µM (series often up to 57.5 µM), without a hit: at the top dose signal change, negative = less light; 120,000 tested, 0.23% active; HEK cells with a luciferase reporter of 2A StopGo recoding; active = well fitted falling curve with a large enough effect; inconclusive = small, poorly fitted or top-dose-only effect; inactive = no such curve, though single readings can be large or run the other way; also: nearly all actives have a fitted effect of over 60% in size; overnight with compound
StopGo RLuc – Primary qHTS Assay for Foot and Mouth Disease Virus Antivirals against NCGC Sytravon and CBC Compound Libraries: Renilla Luciferase Signal. Potency, µM (highest dose often 57.5 µM), without a hit: top-dose signal change, negative = less light. HEK cells with a luciferase reporter of 2A StopGo recoding. AID 1745857, 2022. 120,000 tested, 0.32% active; active means well fitted falling curve with a large enough effect; inconclusive means small, poorly fitted or top-dose-only effect; inactive means no such curve, though single readings can be large or run the other way; also: nearly all actives have a fitted effect of over 55% in size; overnight with compound
The depositor's hits bear a star; ? = inconclusive; & = joins results of further samples; [ ] = another dose, or the depositor's remark. % is scaled to controls: 0 for no effect and ±100 for the full control effect; potency is read from the fitted curve at half-maximal effect. This is a subset; count on the stated rates, not on these rows.

SMILES	2A firefly	StopGo RLuc
COc1ccccc1CNC(=O)CCC1N=C2c3ccccc3N=C(SCC(=O)NCCc3ccccc3)N2C1=O (stereo unspecified)	6%	2%
Cc1cccc(C2CC(=O)c3cnn(-c4nc5ccccc5[nH]4)c3C2)c1 (stereo unspecified)	-5%	-7%
COC(=O)c1ccc([C@H]2Nc3ccc(S(=O)(=O)Nc4ccc(F)cc4)cc3[C@H]3C=CC[C@H]32)cc1	-14%	113%[activator]
O=C(OCCOc1ccccc1Cl)c1cc(=O)c2cc(Cl)ccc2o1	11%	5%
Cc1c(C(=O)NCCn2c(C)cc3ccccc32)cccc1[N+](=O)[O-]	-5%	14%
CCCCCn1c(=O)[nH]c2cc(C(=O)N3CCN(c4ccccc4)CC3)ccc2c1=O	-10%	-5%
CC(=O)N1CCc2cc(S(=O)(=O)C(C)CC(=O)Nc3ccc(Br)c(C)c3)ccc21 (stereo unspecified)	153%[activator]	8%
O=C(NC1CC1)c1cc(-c2cccnc2)nc2ccccc12	1%	-4%
O=C(CCCN1C(=O)c2ccc(Br)cc2C1=O)OCc1cccc([N+](=O)[O-])c1	5%	-3%
COC(=O)c1ccccc1NC(=O)CSc1nc(=O)cc(N)n1-c1ccccc1	-9%	-5%
COc1ccc(C(=O)Nc2cc3c(cc2C(=O)c2ccccc2Cl)OCCO3)cc1	-2%	-2%
COc1cc(OC)c(C2C=C(C(=O)O)Nc3ncnn32)cc1OC (stereo unspecified)	-6%	-10%
c1ccc(-c2n[nH]c(-c3ccncc3)n2)cc1	166%[activator]	10%
O=C1NC2(C(=O)Nc3ccc(F)c(Cl)c3)CCC(=O)N2c2ccccc21 (stereo unspecified)	15%	0%
Cc1ccc(OCC(=O)OCC(=O)c2ccc(Cl)cc2)cc1C	5%	-5%
CCOC(=O)c1ccccc1NC(=O)N1CCCn2nc(C)cc21	-4%	0%
CCCCN(C)S(=O)(=O)N(C)Cc1ccc2c(c1)OCCO2	21%	43%[activator]
O=C(Oc1ccc2cc(-c3nc4ccccc4s3)c(=O)oc2c1)C1CC1	158%[activator]	3%
COc1cc(Cl)c(NC(=O)CC(C)S(=O)(=O)c2cc3c(cc2C)NC(=O)CO3)c(OC)c1 (stereo unspecified)	-6%	18%
CCCC(C(=O)NCc1coc(-c2cccs2)n1)c1ccccc1 (stereo unspecified)	-48%	?
CC(=O)c1c(C)[nH]c(C(=O)C(C)NC(C)c2ccc(Cl)cc2Cl)c1C (stereo unspecified)	?	-18%
COC(=O)c1ccccc1NS(=O)(=O)c1cc2c3c(c1)CC(=O)N3CCC2	-24%	4%
C[C@@H](C1=C(CCN(C)C)Cc2ccccc21)c1ccccn1	-24%	-16%
CC1CCN(c2nc3ccccc3nc2SCC(=O)N2CCCCCC2)CC1	-1%	26%
COc1cc(Br)c(C2CC(=O)Nc3cc4c(cc32)OCCO4)cc1OC (stereo unspecified)	24%	0%
O=C(Nc1cc(-c2ccccc2)sc1C(=O)O)c1cccc(F)c1	43%[activator]	-19%
O=C(CN1C(=O)COc2ccc(S(=O)(=O)N3CCCC3)cc21)N1CCN(c2cccc(C(F)(F)F)c2)CC1	2%	-5%
CCN1C(=O)c2ccccc2S(=O)c2ccc(C(=O)N3CCN(c4cc(Cl)ccc4C)CC3)cc21 (stereo unspecified)	?	?
COCCn1cc(C(=O)NCCc2c(C)cc(C)cc2C)ccc1=O	7%	1%
CCOc1ccccc1NC(=O)C(=O)NCCc1sc(-c2cccc(F)c2)nc1C	-21%	-8%
O=C(CSc1nc2c(c(=O)[nH]1)CCCC2)Nc1cccc(O)c1	8%	22%
CNc1nc(-c2cc(C)n(NC(=O)c3n[nH]c(=O)c4ccccc34)c2C)cs1	-14%	-15%
COc1ccc(NC(=O)CCCSc2nc(-c3ccco3)cc(C(F)(F)F)n2)cc1OC	-6%	-6%
CC1(C)CC(=O)c2cc(C#N)c(SCC(N)=O)nc2C1	2%	-7%
COc1ccccc1C(=O)Nc1c(C(=O)c2ccccc2)oc2ccccc12	-3%	3%
COc1ccc(NC(=O)CN2C(=O)CC(c3ccc(C)c(C)c3)=Nc3ccccc32)cc1OC	102%[activator]	-5%
CCn1nnc(NCc2ccc(Cl)cc2Cl)n1	156%[activator]	12%
Cc1nc2ccn(Cc3cccs3)c(=O)c2cc1C(=O)NCc1ccc(Br)cc1	-33%	141%[activator]
CCCCn1nc(C(=O)Nc2ccc(F)c(F)c2)c2ccccc2c1=O	12%	13%
COc1ccc(Nc2cc(C)nc(N3CCN(C(=O)Nc4ccc(F)cc4)CC3)n2)cc1	-19%	-26%

No new results follow: entries from further up.
SMILES	2A firefly	StopGo RLuc
CC(=O)c1c(C)[nH]c(C(=O)C(C)NC(C)c2ccc(Cl)cc2Cl)c1C (stereo unspecified)	?	-18%
COC(=O)c1ccccc1NS(=O)(=O)c1cc2c3c(c1)CC(=O)N3CCC2	-24%	4%
C[C@@H](C1=C(CCN(C)C)Cc2ccccc21)c1ccccn1	-24%	-16%
CC1CCN(c2nc3ccccc3nc2SCC(=O)N2CCCCCC2)CC1	-1%	26%
COc1cc(Br)c(C2CC(=O)Nc3cc4c(cc32)OCCO4)cc1OC (stereo unspecified)	24%	0%
O=C(Nc1cc(-c2ccccc2)sc1C(=O)O)c1cccc(F)c1	43%[activator]	-19%
O=C(CN1C(=O)COc2ccc(S(=O)(=O)N3CCCC3)cc21)N1CCN(c2cccc(C(F)(F)F)c2)CC1	2%	-5%
CCN1C(=O)c2ccccc2S(=O)c2ccc(C(=O)N3CCN(c4cc(Cl)ccc4C)CC3)cc21 (stereo unspecified)	?	?
COCCn1cc(C(=O)NCCc2c(C)cc(C)cc2C)ccc1=O	7%	1%
CCOc1ccccc1NC(=O)C(=O)NCCc1sc(-c2cccc(F)c2)nc1C	-21%	-8%
O=C(CSc1nc2c(c(=O)[nH]1)CCCC2)Nc1cccc(O)c1	8%	22%
CNc1nc(-c2cc(C)n(NC(=O)c3n[nH]c(=O)c4ccccc34)c2C)cs1	-14%	-15%
COc1ccc(NC(=O)CCCSc2nc(-c3ccco3)cc(C(F)(F)F)n2)cc1OC	-6%	-6%
CC1(C)CC(=O)c2cc(C#N)c(SCC(N)=O)nc2C1	2%	-7%
COc1ccccc1C(=O)Nc1c(C(=O)c2ccccc2)oc2ccccc12	-3%	3%
COc1ccc(NC(=O)CN2C(=O)CC(c3ccc(C)c(C)c3)=Nc3ccccc32)cc1OC	102%[activator]	-5%
CCn1nnc(NCc2ccc(Cl)cc2Cl)n1	156%[activator]	12%
Cc1nc2ccn(Cc3cccs3)c(=O)c2cc1C(=O)NCc1ccc(Br)cc1	-33%	141%[activator]
CCCCn1nc(C(=O)Nc2ccc(F)c(F)c2)c2ccccc2c1=O	12%	13%
COc1ccc(Nc2cc(C)nc(N3CCN(C(=O)Nc4ccc(F)cc4)CC3)n2)cc1	-19%	-26%

New compounds follow.
SMILES	2A firefly	StopGo RLuc
CCCCOc1ccc(CN2C(=O)C(=O)c3cc(C)ccc32)cc1OC	4%	-3%
CCOC(=O)COc1ccc2c(=O)c(Oc3ccc(Br)cc3)c(C)oc2c1	15%	4%
Cc1cc(Sc2ccc(Cl)cc2)nc2ccccc12	35%&-11%[activator]	21%&-4%
CCOC(=O)c1c(NC(=O)CN2CCc3ccccc32)sc(C)c1CC	-1%	18%
COc1ccc2oc(=O)cc(CN3CCN(C(=O)c4c(OC)cccc4OC)CC3)c2c1	12%	8%
COc1ccccc1-c1noc(Cn2cnc3c(oc4ccccc43)c2=O)n1	232%[activator]	-1%
CCOC(=O)C(C)Oc1ccc2c(C)c(CCC(C)C)c(=O)oc2c1 (stereo unspecified)	35%[activator]	-1%
COc1ccccc1-c1nc(CSc2nc(C)c(C)c(=O)[nH]2)c(C)o1	44%[activator]	80%[activator]
CCCCC(=O)NC1(C(F)(F)F)C(=O)N(Cc2ccccc2)C(C)=C1C(=O)OC (stereo unspecified)	15%	47%[activator]
CCN1CCN(C(=O)c2ccc3c(c2)N(Cc2ccc(Cl)cc2)C(=O)c2ccccc2S3=O)CC1 (stereo unspecified)	15%	0%
CCN(CC)C(=O)C1=C(C)Nc2nc3ccccc3n2C1c1ccccc1F (stereo unspecified)	-14%	-8%
CCOc1ccc(NCc2cccn2-c2nnc(N3CCC(C(=O)NC(C)C)CC3)s2)cc1	-13%	-8%
O=C(NCC1CCCO1)c1cc(-c2ccccc2)nc2ccccc12 (stereo unspecified)	18%	8%
COc1ccc(CNC(=O)c2cc3ccccn3n2)cc1OC	5%	15%
O=C(Nc1ccc(S(=O)(=O)Nc2ncccn2)cc1)c1cc(=O)c2ccccc2o1	-12%	4%
COc1ccccc1NC(=O)c1cnc(N2CCCCC2)c2ccccc12	0%	20%
CCC(CN)=C(c1ccccc1)c1ccccc1	-17%	18%
Cc1ccccc1N1CCN(S(=O)(=O)c2nnc(NC(=O)c3ccccc3)s2)CC1	0%	3%
Cc1ccccc1-n1nnnc1C1(NCc2ccccc2)CCCC1	5%	60%[activator]
CC(C)N(Cc1ccccc1)C(=O)C1CCCN(c2ncnc3onc(-c4ccc(F)cc4)c23)C1 (stereo unspecified)	-1%	-4%
Cc1cc(C)c2cc(C(=O)N3CCCCC3)[nH]c2c1C	0%	231%[activator]
COc1ccc2c(c1)CC(C(=O)Nc1ccc(OC)cc1OC)CO2 (stereo unspecified)	10%	-5%
CSc1ccc(C(C)NC(=O)c2cc(F)ccc2F)cc1 (stereo unspecified)	3%	9%
O=C(N/N=C/c1ccccc1F)c1csc2ccccc12	295%[activator]	20%
C/C(=N/NC(=S)NCc1ccccc1)c1ccc(Cl)c(Cl)c1	2%	33%[activator]
COc1ccc(S(=O)(=O)N2CCC(C(=O)Nc3ccc(Oc4ccccc4)cc3)CC2)cc1	-14%	-6%
CCN(CC)c1ccc(NC(=O)CN2CCN(CC(=O)Nc3ccccc3OC)CC2)cc1	9%	-1%
COc1ccc(-c2csc(-c3nc(-c4ccc(C)cc4C)cs3)n2)cc1	28%	20%
COc1ccccc1C(=O)NCCc1sc2nc(-c3ccc(F)cc3)nn2c1C	42%[activator]	?
CCCCOc1ccccc1C(=O)Nc1ccc(OCCC)c2ncccc12	-17%	-9%
CCCCCCCCCCCC(=O)N/N=C/c1ccc(C(C)(C)C)cc1	8%	-7%
CCc1nnc2c(Nc3ccc(N(CC)CC)cc3C)nc3ccccc3n12	-6%	-3%
CCCSCCCNC(=O)C1CCN(C(=O)c2cnn(-c3ccccc3)c2-n2cccc2)CC1	-5%	?
O=C(/C=C/Nc1ccc(Oc2ccccc2)cc1)c1ccccc1	250%[activator]	19%
Cc1ccc(-c2noc(COc3ccccc3C(=O)N3CCN(C)CC3)n2)cc1	0%	-10%
O=C(CCc1ncc(-c2ccc(F)cc2)o1)N1CCSCC1	118%[activator]	-6%
CC(C(=O)Nc1cccc(Cl)c1)N1CCN(c2ccc([N+](=O)[O-])c3cnccc23)CC1 (stereo unspecified)	3%	4%
CCc1ccccc1NC(=O)Cn1nc(CC)n2c(cc3sccc32)c1=O	-21%	-12%
CN(C)C(=O)COC(=O)c1cc(-c2cccs2)nc2ccccc12	64%[activator]	-1%
Cc1cc(C)cc(Nc2cc(C)nc3nncn23)c1	36%[activator]	33%[activator]
COc1cccc(-c2nc(SCC(=O)NC3CCCC3)c(-c3ccc(F)cc3)[nH]2)c1	-24%	22%
COc1ccc(C(O)c2nc3ccccc3n2C(C)C)cc1 (stereo unspecified)	18%	24%
COC1CC(=C(c2cccs2)c2cccs2)C[N+](C)(C)C1 (stereo unspecified)	-22%	-17%
Cc1ccccc1NC(=O)COc1ccc(C(=O)Nn2c(C)ccc2C)cc1	-4%	-15%
C=CCNc1nc2c(c(=O)n(C)c(=O)n2C)n1Cc1ccccc1	?	?
CCOC(=O)Cn1cc(CN2CCS(=O)(=O)N(Cc3ccc(Cl)cc3)C(C(=O)OC)C2)nn1 (stereo unspecified)	3%	-8%
COc1ccc2c(c1)cc(C(=O)NCc1ccccc1)n2C	35%[activator]	3%
CCCN1C=C(OC(=O)c2ccccc2OC)c2ccccc2S1(=O)=O	20%	-5%
Cc1ccc2c(c1)CCCN2C(=O)c1cc2ccccc2oc1=O	-4%	20%
COc1ccc(/C=C/C(=O)c2ccc(OC)cc2)cc1	?	?

(continued)
SMILES	2A firefly	StopGo RLuc
CC(C)Oc1ccc(C(=O)Nc2ccc(-c3nc4ccccc4s3)cc2)cc1	25%	-8%
CCc1ccc(NC(=O)CCS(=O)(=O)c2cc3c(cc2Cl)NC(=O)CO3)cc1	10%	3%
O=C(NCCc1c[nH]c2ccccc12)c1ccc(-c2ccccc2)cc1	165%[activator]	-11%
CCOC(=O)C1=C(CN(CC)Cc2ccccc2)NC(=O)NC1c1ccc(Cl)cc1 (stereo unspecified)	-15%&-17%	25%&23%
CCc1ccccc1NC(=O)C(CC)Oc1ccccc1-c1nnc(-c2ccccc2)o1 (stereo unspecified)	19%	28%
CCc1cccc(C)c1NC(=O)CSc1ncnc2ccccc12	8%	-9%
Cc1c(O)ccc2c(CN(C)CC(=O)Nc3cccc4ccccc34)cc(=O)oc12	1%	16%
COc1cc(C(=O)N2CCC(c3nc4ccccc4o3)CC2)cc(OC)c1OC	-26%	21%
COc1ccc(NC(=O)Cn2c(=O)n(-c3ccc(CC(=O)NCC4CCCO4)cc3)c(=O)c3ccccc32)c(OC)c1 (stereo unspecified)	-16%	-5%
CCOc1ccc(CNC(=O)c2ccc(NC(=O)N3CCSc4ncccc43)cc2)cc1OC	-12%	-14%
Cc1ccc(-c2nc(CN3CCCC3c3ccsc3)co2)c(C)c1 (stereo unspecified)	35%[activator]	5%

Compound activity (PubChem)
